# Screens from PubChem BioAssay.
# CBX7 inh = CBX7 chromodomain binding inhibitors, primary screen, biochemical, AlphaScreen; Chromobox protein homolog 7 (Homo sapiens), O95931; normalised signal (fraction of DMSO) (concentration not given with the values); AlphaScreen His6-CBX7 / biotin-H3K27me3 peptide binding; stronger effect = lower value; AID 1224903, 2016; actives 1.1% (n = 66,000); in the data active = normalised signal below about 0.5;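 note: 100 nL library stock added to about 20 µL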
# Target sequence (O95931 whole entry, looked up): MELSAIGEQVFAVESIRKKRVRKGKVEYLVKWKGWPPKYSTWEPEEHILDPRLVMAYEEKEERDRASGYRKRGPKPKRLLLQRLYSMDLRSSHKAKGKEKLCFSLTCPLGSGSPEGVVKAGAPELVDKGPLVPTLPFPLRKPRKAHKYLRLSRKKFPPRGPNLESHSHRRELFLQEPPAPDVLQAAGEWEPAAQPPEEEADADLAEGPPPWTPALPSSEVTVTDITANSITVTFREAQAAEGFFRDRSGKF
# CBX7 inh z-score = also measured in CBX7 inh; calls as there; z-score; measured here: z-score of CBX7 signal; some inactives read as strong as hits; reference of the scale not given here;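 same signal on another scale; lower means less binding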
# * hit, by the source's call; & = joins results of further samples. Some of the compounds tested. The share of hits here may be higher or lower than overall.
SMILES,CBX7 inh,CBX7 inh z-score
O=C(O)CC(NCc1ccncc1)c1cccs1 (configuration not stated),1.01,0.0106
CCc1ccc(NC(=O)Cn2cc(S(=O)(=O)c3ccccc3)c(=O)c3ccccc32)cc1,0.974,-0.842
COc1nnc(-c2ccc(N3CCOCC3)c(NC(=O)c3ccc([N+](=O)[O-])cc3)c2)c2ccccc12,0.961,-0.873
CN1CCN(C(=O)Cn2nc(-c3ccc(Cl)cc3)ccc2=O)CC1,1.03,1.57
CCOc1ccc(CCNC(=O)c2csc3c2CCCCC3)cc1,1.06,2.08
CCOc1ccccc1NC(=O)c1cnc(Nc2ccc(C)c(Cl)c2)c2ccccc12,1.37,15.5
CCOc1ccc2c(c1)c(=O)c(S(=O)(=O)c1ccccc1)cn2Cc1ccccc1Cl,0.816,-3.52
O=C(CC1Sc2ccccc2NC1=O)NCCc1ccc(Cl)cc1 (configuration not stated),1.01,0.248
CCc1ccc(C2C(C#N)=C(C)NC3=C2C(=O)CCC3)cc1 (configuration not stated),1.21,4.14
Cc1cc(C)cc(NC(=O)C2CCCN2S(=O)(=O)c2ccc3c(c2)n(C)c(=O)c(=O)n3C)c1 (configuration not stated),1.14,2.13
COc1ccc(-c2nc(C#N)c(NCc3ccc(C)cc3)o2)cc1,1.24,2.67
O=C(Cn1cnc2c(nnn2Cc2ccc(F)cc2)c1=O)N1CCCCC1,0.893,-1.75
Cc1cc(Nc2ccc(C(=O)O)cc2)c2cccc(C)c2n1,1.18,2.1
Cc1nccc2[nH]c(=O)c(C(=O)NCCCN(C)c3ccccc3)cc12,1.2,1.14
COc1ccccc1-n1cnc2cc(C(=O)NCc3ccccc3Cl)ccc21,0.865,-1.7
Cc1ccnc(NC(=O)c2c(O)c3ccccc3[nH]c2=O)c1,1.2,3.05
CN(CC(=O)N1CCc2ccccc21)S(=O)(=O)c1ccc2c(c1)n(C)c(=O)c(=O)n2C,1.1,0.966
Cc1ccc(CCNC(=O)C2CCC(=O)N2Cc2cccnc2)cc1 (configuration not stated),0.974,-0.563
Oc1ccc(Cl)cc1CNc1nc2c(s1)CCc1ccccc1-2,0.655,-4.62
Cc1ccc(CNC(=O)c2cnn(-c3ccccc3)c2C2CCNCC2)cc1,1.04,1.64
CCc1cccc(NC(=O)c2ccc3c(=O)n4c(nc3c2)CCCCC4)c1,0.868,-2.16
COC(=O)c1ccc(NC(=O)c2c(NCc3cccc(F)c3)sc3c2CCCC3)cc1,0.832,-8.71
CCCN1Cc2cccc(C(=O)Nc3ccccc3OC)c2C1=O,0.947,-0.604
Cc1ccc(-c2noc(CN(C(=O)COc3ccc(C(C)C)cc3Br)C(C)C)n2)cc1,0.868,-1.31
CN(C)CCCNc1ncnc2c1c(-c1ccccc1)cn2-c1cccc(Cl)c1,0.786,-5.43
COc1ccc(Nc2cc(C(=O)NCCCOC(C)C)c3ccccc3n2)cc1,0.829,-2.03
Cc1ccnc(NS(=O)(=O)c2c(C)noc2C)c1,1.03,1.48
Oc1ccc(C2C=C(c3ccccc3)Nc3ncnn32)cc1 (configuration not stated),0.695,-4.2
O=C(CSc1nnc(Cc2cc(=O)[nH]c(=O)[nH]2)n1-c1ccc(Cl)cc1)Nc1cccc(F)c1,1.02,0.49
CCCCN(CCCC)C(=O)CN(C)S(=O)(=O)c1ccc2c(c1)n(C)c(=O)c(=O)n2C,1.09,0.827
CC1CCCCN1C(=O)Cn1nc(Cc2cccnc2)c2ccccc2c1=O (configuration not stated),1.16,1.66
CCc1nnc(NC(=O)C2=CCN(S(=O)(=O)c3ccccc3)CC2)s1,1.05,0.857
CCc1ccc(NC(=O)CSc2nccn2-c2ccc(F)cc2)cc1,0.798,-1.58
COC(=O)c1cnc(NCCCN2CCC(C)CC2)c2ccccc12,1.07,1.64
CCc1ccccc1NC(=O)C1CCN(C(=O)c2cc3sccc3n2Cc2ccc(F)cc2)CC1,0.966,-1.37
Cc1cc(C)n(-c2nc3ccccc3nc2Nc2ccc3c(c2)OCCO3)n1,1.85,30.4
O=C(NCCCN1CCOCC1)C1CCCN(c2nc3ccccc3o2)C1 (configuration not stated),1.19,5.64
CCc1ccc(-c2nc(CN3CCC(C(=O)O)CC3)c(C)o2)cc1,1.05,2.19
CCCCN(CC)C(=O)C1CCCN(S(=O)(=O)c2c(C)noc2/C=C/c2cccs2)C1 (configuration not stated),1.15,2.64
C=CCn1cc(C(=O)NCC2CCCO2)c(=O)c2cc(S(=O)(=O)N(CC)CC)ccc21 (configuration not stated),1.16,2.25
COc1cc(-n2c(C)nc3cc(C(=O)O)ccc32)cc(OC)c1OC,0.958,-0.408
Fc1ccccc1Nc1nnc(Cc2cccnc2)c2ccccc12,1.02,0.392
COC(=O)c1ccccc1NC(=O)c1sc2ncn(CC(=O)N3CCCC3)c(=O)c2c1C,1.14,1.37
O=C(Cn1ncc2ccsc2c1=O)NCCN1CCN(Cc2ccccc2)CC1,0.997,-0.074
c1nnc2c3c4c(sc3ncn12)CCCC4,1.01,0.154
CCOC(=O)C1CCCN(C(=O)Cn2ncc3c2-c2ccccc2OC3)C1 (configuration not stated),1.03,0.335
COCCNC(=O)C1c2ccccc2C(=O)N2CCc3ccccc3C12 (configuration not stated),1.05,0.768
CCOC(=O)N1CCC(Nc2c(NCCCc3ccccc3)c(=O)c2=O)CC1,1.11,1.82
COc1ccc(C2=NOC(C(=O)Nc3ccc(C#N)cc3)C2)cc1 (configuration not stated),1.01,0.328
Cc1cccc(-c2nnc(-c3ccc(Br)cc3)o2)c1,1.13,1.72
C=CCN(c1ccccc1)S(=O)(=O)c1ccc2[nH]cc(C(=O)NCCCC)c(=O)c2c1,1.16,2.38
Cc1ccc(Cl)cc1N1CCN(C(=O)c2ccc3c(=O)n4c(nc3c2)CCCCC4)CC1,0.992,-0.128
CC1(C)CC(=O)C2=C(C1)NC(=O)CC2c1ccc(F)c(Br)c1 (configuration not stated),0.942,-0.732
COc1ccc2nc(SCC(=O)Nc3ccc(Cl)c(C(=O)O)c3)[nH]c2c1,1.25,1.64
O=C1CCc2cc(S(=O)(=O)NC(Cc3ccccc3)C(=O)N3CCC4(CC3)OCCO4)ccc2N1 (configuration not stated),1.01,0.0917
O=C(Cn1nc(Cc2cccnc2)c2ccccc2c1=O)N1CCN(c2ccc(F)cc2)CC1,0.975,-0.263
Cc1ccc(-c2noc(CCC(=O)NCc3ccc4c(c3)OCO4)n2)cc1,0.994,-0.111
COc1ccc(-c2cc(C(F)(F)F)n3nc(-c4ccccc4)cc3n2)cc1,0.925&1.08,-1.39&1.07
COc1ccc(C(=O)Nc2c3c(nn2-c2ccc(C)cc2)CSC3)cc1OC,0.998,-0.00181
COc1ccc(NC(=O)CCc2c(C)nc3cc(-c4cccc(F)c4)nn3c2C)cc1Cl,1,0.00976
# More compounds follow:
SMILES,CBX7 inh,CBX7 inh z-score
Cc1ccc(C2CC(c3cccc(F)c3)n3ncnc3N2)cc1 (configuration not stated),1.02,0.833
CCCCC(CC)CNC(=O)C(Cc1ccccc1)NS(=O)(=O)c1ccc2c(c1)CCC(=O)N2 (configuration not stated),0.951,-0.915
CCC1Oc2ccc(C)cc2N(CC(=O)NCCCN2CCN(c3ccc(OC)cc3)CC2)C1=O (configuration not stated),0.88,-5.98
O=C(CN1CCN(Cc2ccc(F)cc2)C1=O)NC1CCCC1,1.06,0.796
CCn1c(C(=O)Nc2cc3c(cc2C(=O)OC)OCO3)cc2sc(Cl)cc21,0.945,-2.17
Cc1ccccc1OCCSc1nc2ccccc2n1CCO,0.988,-0.131
O=C(Cn1ncc2ccsc2c1=O)NCCN1CCCC1,1.03,0.769
Cc1nc(Oc2ccc(F)cc2)c(C(=O)N2CCOCC2)c(C)c1Cl,0.978,-0.634
CC(C)C(C(=O)Nc1ccc2c(c1)OCCO2)N1C(=O)c2ccccc2C1=O (configuration not stated),1.38,0.862
O=C(Nc1nc(-c2ccccc2)c(C(=O)c2ccccc2)s1)c1ccc(Br)cc1,0.912,-1.45
CN1CCN(c2ccccc2NC(=O)CCc2nc(-c3cccs3)no2)CC1,0.97,-0.794
O=C(CC1Oc2ccccc2NC1=O)NCCC1=CCCCC1 (configuration not stated),1.18,1.04
COc1ccc(-c2cc(C(=O)Nc3cccnc3)no2)cc1,1.11,2.35
Cc1sc2ncn(CC(=O)NCC(=O)N3CCCC3)c(=O)c2c1C,1.14,1.36
CCOc1ccc(-n2ccnc2SCC(=O)Nc2ccccc2F)cc1,0.617,-0.508
COc1cccc(-n2ccnc2SCC(=O)Nc2cccc(C)c2C)c1,0.956,-0.67
Cc1ccc(NC(=O)C2CCN(S(=O)(=O)c3ccccc3)CC2)cc1,0.886,-2.12
Cn1c2ccccc2c2nnc(SCC(=O)Nc3ncccn3)nc21,0.797,-2.43
COc1ccc2nc(SCC(=O)Nc3ccc(OC)c(OC)c3)[nH]c2c1,1.17,1.9
O=C1CN2C(=N1)N(Cc1ccccc1)c1ccccc12,1.21,2.23

# Some of the entries so far, with two lines to a compound.
# Under each structure – CBX7 inh	CBX7 inh z-score
> Cc1ccc(C2CC(c3cccc(F)c3)n3ncnc3N2)cc1 (configuration not stated)
 : 1.02	0.833
> CCCCC(CC)CNC(=O)C(Cc1ccccc1)NS(=O)(=O)c1ccc2c(c1)CCC(=O)N2 (configuration not stated)
 : 0.951	-0.915
> CCC1Oc2ccc(C)cc2N(CC(=O)NCCCN2CCN(c3ccc(OC)cc3)CC2)C1=O (configuration not stated)
 : 0.88	-5.98
> O=C(CN1CCN(Cc2ccc(F)cc2)C1=O)NC1CCCC1
 : 1.06	0.796
> CCn1c(C(=O)Nc2cc3c(cc2C(=O)OC)OCO3)cc2sc(Cl)cc21
 : 0.945	-2.17
> Cc1ccccc1OCCSc1nc2ccccc2n1CCO
 : 0.988	-0.131
> O=C(Cn1ncc2ccsc2c1=O)NCCN1CCCC1
 : 1.03	0.769
> Cc1nc(Oc2ccc(F)cc2)c(C(=O)N2CCOCC2)c(C)c1Cl
 : 0.978	-0.634
> CC(C)C(C(=O)Nc1ccc2c(c1)OCCO2)N1C(=O)c2ccccc2C1=O (configuration not stated)
 : 1.38	0.862
> O=C(Nc1nc(-c2ccccc2)c(C(=O)c2ccccc2)s1)c1ccc(Br)cc1
 : 0.912	-1.45
> CN1CCN(c2ccccc2NC(=O)CCc2nc(-c3cccs3)no2)CC1
 : 0.97	-0.794
> O=C(CC1Oc2ccccc2NC1=O)NCCC1=CCCCC1 (configuration not stated)
 : 1.18	1.04
> COc1ccc(-c2cc(C(=O)Nc3cccnc3)no2)cc1
 : 1.11	2.35
> Cc1sc2ncn(CC(=O)NCC(=O)N3CCCC3)c(=O)c2c1C
 : 1.14	1.36

# (listing goes on)
SMILES,CBX7 inh,CBX7 inh z-score
COc1ccc2nc(N3CCC(C(=O)NCCN(C)C)CC3)sc2c1,0.979,-0.23
OCc1ccc(-c2nnc(-c3ccc(-c4ncc(-c5ccccc5)o4)cc3)o2)cc1,1.05,0.766
COc1ccc(NS(=O)(=O)Cc2ccccc2)cc1,0.95,-0.499
CCc1ccc(-c2nc(C(=O)NCCCN3CCOCC3)c(C)o2)cc1,1.21,1.68
O=C(c1ccc2c(c1)N(Cc1ccc(F)cc1)CCS2)N1CCN(c2ccccc2)CC1,0.76,-7.8
O=C(Nc1ccccc1C(=O)Nc1ccccn1)c1ccccc1Cl,1.05,1.12
COc1ccccc1C(=O)Nc1ccc2nc(N3CCOCC3)cc(C)c2c1,1.08,2.14
COCCn1c(SCC(N)=O)nnc1-c1c[nH]c2ccccc12,1.07,0.467
Cc1cc(-c2ccccc2)nc(Nc2nc(C)c3cc(C)c(C)cc3n2)n1,1.01,0.241
Cc1ccc(-c2nn(C)c(=O)c3ccccc23)cc1S(=O)(=O)N1CCCC1,1.04,0.484
CCOc1ccc2nc(N3CCCC(C(=O)NCCCN4CCN(CC)CC4)C3)sc2c1 (configuration not stated),0.436*,-10.6*
O=C(O)C1CCN(c2nc(-c3cccc4ccccc34)cs2)CC1,1.05,0.804
CCc1ccc(OC(C)C(=O)N(Cc2ccccc2)C2CCS(=O)(=O)C2)cc1 (configuration not stated),1.1,3.49
COc1ccc(-c2ncccc2O)cc1N,1.24,2.58
Cc1ccccc1-n1c(=O)cc(NCCCn2ccnc2)[nH]c1=O,1.06,1.11
CC(C)Oc1ccccc1OCCn1c(-c2ccc(Cl)cc2)nc2ccccc2c1=O,1.47,4.54
COc1cc(Cl)ccc1Nc1ncc(C(=O)Nc2ccc3c(c2)OCO3)c2ccccc12,0.986,-0.344
COc1ccc(-c2ccc(=O)n(CC(=O)NCCc3ccccc3)n2)cc1,1.04,0.98
COc1ccc(OCC(=O)Nc2ncc(Cc3ccccc3Cl)s2)cc1,1.03,0.241
O=C(COc1ccccc1)Nc1c2c(nn1-c1ccc(Cl)cc1)CSC2,0.998,-0.0467
CCc1ccc(NC(=O)C2CCCN(S(=O)(=O)c3cccc4cccnc34)C2)cc1 (configuration not stated),0.873,-1.36
CCCCN(C)CCCNC(=O)CN1C(=O)COc2ccc(S(=O)(=O)N3CCC(C)CC3)cc21,1.04,1.34
COc1ccccc1CNC(=O)C1CCN(S(=O)(=O)c2cccc3nsnc23)CC1,0.963,-1.03
O=C(Nc1nnc(COc2ccc(C3CCCCC3)cc2)s1)c1ccc(F)cc1,1.2,0.839
Cc1cc(C)c(NC(=O)C2CCCN(S(=O)(=O)c3c(C)noc3C)C2)c(C)c1 (configuration not stated),0.873,-1.06
NS(=O)(=O)c1ccc(CCNC(=O)CCCn2c(=O)[nH]c3ccccc3c2=O)cc1,1.12,0.349
O=[N+]([O-])c1ccc(-c2nc(-c3ccccc3)c(-c3ccc(F)cc3)[nH]2)cc1,0.662,-0.336
COc1cccc(-c2nn(C)c3sc(C(=O)Nc4cccc(Cl)c4)cc23)c1,0.981,-0.242
CNC(=O)CN1C(=O)COc2ccc(S(=O)(=O)N3CC(C)CC(C)C3)cc21 (configuration not stated),0.995,-0.141
Cc1ccc2sc(-c3ccc(NCc4ccncc4)cc3)nc2c1,1.06&1.05,0.897&0.256
Nc1ncc(-c2nc3ccccc3[nH]2)s1,0.935,-0.774
COc1ccc(/C=C/c2nc3ccccc3c(=O)n2-c2ccc(OC)c(Cl)c2)cc1O,1.17,1.69
CCc1cccc(NC(=O)C2CCN(S(=O)(=O)c3cccnc3)CC2)c1,1.04,0.99
